# gsp ag = agonists of gsp mutant (McCune-Albright syndrome) | Potency, µM (doses to about 76.9 µM), for inactives: top-dose activation (cAMP increase), most hits filed as activators | gsp mutant cells, cAMP HTRF, 30 min; control for the full effect not named in the record | actives 0.13% (n = 340,000); active = well fitted activation curve with a large enough effect; inconclusive = small, poorly fitted or top-dose-only effect, or another doubt; inactive = no such curve, though single readings can be large or run the other way; cell line not stated here;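 note: phosphodiesterase inhibitor Ro 20-1724 added with compounds to block cAMP breakdown; potency is the fitted concentration of half-maximal effect; nearly all actives have a fitted effect of over 60% in size; about a fifth of the inactives were tested at one dose only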
#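 Cells stably selected in G418 were plated at 2000/well, grown 16-24 hr, then given compounds in DMSO with the PDE inhibitor […] (300 uM solution added) for 30 min at 37C; cAMP was read by HTRF.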
# ClpP mod = qHTS Assay for Activators of ClpP. actives 1.9% (n = 340,000). Potency, µM (doses to about 57.5 µM), inactives show top-dose activity change, negative = active. purified B. subtilis ClpP, FRET peptide cleavage, 20 min; active = well fitted falling curve with a large enough effect; inconclusive = small, poorly fitted or top-dose-only effect; inactive = no such curve, though single readings can be large or run the other way; note: potency is the fitted concentration of half-maximal effect; the source files actives as falling curves though it sought activators and does not explain the sign; nearly all actives have a fitted effect of over 65% in size; many hits overshoot -100%
# Target sequence (P80244 whole entry, looked up): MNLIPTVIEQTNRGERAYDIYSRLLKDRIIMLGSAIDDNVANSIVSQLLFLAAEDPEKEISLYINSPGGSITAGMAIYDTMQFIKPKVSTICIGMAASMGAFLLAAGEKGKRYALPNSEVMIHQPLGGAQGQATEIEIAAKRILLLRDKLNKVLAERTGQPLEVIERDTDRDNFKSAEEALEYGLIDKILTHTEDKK
#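 FRET quenching reversal measured ClpP activation: 10 microg/mL B. subtilis ClpP at pH 8 with the FRET-FV decapeptide, read at 430 nm after 320 nm excitation. The 20-min minus 0-min signal was scaled between DMSO/no-enzyme wells and ADEP (5.8 microM final).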
# CtBP-E1A blk = blocks the CtBP interaction with E1A; activity change, % (concentration not given with the values); AlphaScreen GST-E1A/His-CtBP binding, 1536-well; active compounds read low; control for the full effect not named in the record; AID 651724; actives 0.49% (n = 340,000); in the data active means activity change below about -65%; inconclusive means about -30% to -65%; inactive means above about -30%; note: % is set by controls: 0 for no effect and ±100 for the full control effect
#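 Steps: dispense buffer (Tris pH 8.0, NaCl 300 mM, TCEP 1 mM, BSA, Tween 20); add 5X protein mix (GST-E1A, His-CtBP, 125 nM each); pin 23 nL compound; 2 h at 37 °C, dark; add 5X beads (50 ug/mL); 1 h; read.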
# TRPV1 potentiator = potentiators of human vanilloid receptor 1 (TRPV1). Q8NER1. TRPV1-expressing cells, Fluo-8 calcium influx, capsaicin EC20 potentiation; host cell line not named in the record; control for the full effect not named in the record. potentiation, % at 8.33 µM. actives 0.02% (n = 320,000). AID 540277; active means potentiation above 80%; inconclusive means 30% to 80%; inactive means below 30%; note: 0% is about no effect
# Target sequence (Q8NER1 whole entry, looked up): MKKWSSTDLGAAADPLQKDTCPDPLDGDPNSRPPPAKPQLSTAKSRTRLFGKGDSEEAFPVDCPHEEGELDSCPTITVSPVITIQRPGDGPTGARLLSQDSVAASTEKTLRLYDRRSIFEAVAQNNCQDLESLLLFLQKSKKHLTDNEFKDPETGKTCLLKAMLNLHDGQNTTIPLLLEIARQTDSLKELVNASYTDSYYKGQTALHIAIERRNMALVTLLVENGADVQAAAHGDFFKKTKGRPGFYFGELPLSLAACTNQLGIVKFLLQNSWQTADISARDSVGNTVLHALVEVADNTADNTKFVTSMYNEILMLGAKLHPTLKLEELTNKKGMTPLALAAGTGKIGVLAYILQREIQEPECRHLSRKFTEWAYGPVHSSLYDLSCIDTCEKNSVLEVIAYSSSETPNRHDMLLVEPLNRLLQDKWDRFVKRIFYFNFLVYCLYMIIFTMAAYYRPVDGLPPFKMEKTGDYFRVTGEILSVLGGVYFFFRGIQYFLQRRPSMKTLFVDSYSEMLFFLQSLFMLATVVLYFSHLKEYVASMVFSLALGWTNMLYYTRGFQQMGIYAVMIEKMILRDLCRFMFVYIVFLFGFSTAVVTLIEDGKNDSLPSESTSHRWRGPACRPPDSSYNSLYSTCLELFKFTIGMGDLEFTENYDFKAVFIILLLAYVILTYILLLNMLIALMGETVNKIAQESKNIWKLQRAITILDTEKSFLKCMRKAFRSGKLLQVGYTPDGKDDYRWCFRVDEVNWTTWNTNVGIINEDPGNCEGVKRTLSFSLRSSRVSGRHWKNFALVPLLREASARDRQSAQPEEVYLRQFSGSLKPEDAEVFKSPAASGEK
#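 Cells expressing TRPV1 were dye-loaded with Fluo-8 and read kinetically: 10 s baseline, 3 min after compound (agonist portion), then 2 min after EC20 capsaicin (allosteric enhancer portion). Calcium-bound dye fluorescence at 480/520 nm.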
# Menin-MLL FL inh = inhibitors of human menin-MLL interaction, wild-type MLL peptide | FP activity change, % at 61.4 µM | Fluorescence polarization, fluorescein-MLL peptide displacement from menin | 290,000 tested, under 10 active; inconclusive = falling polarisation curve, or a change in total fluorescence; inactive = total fluorescence flat and polarisation flat or rising; no compound was filed as active; the % refers to the polarisation; negative = inhibition;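 note: % of control where 0% means no effect; inhibitors lower the polarisation; unlabelled MLL peptide was the positive control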
# gsp antag = antagonists of gsp mutant (McCune-Albright syndrome) | AID 624288 | actives 0.4% (n = 340,000) | gsp-mutant cells, cAMP HTRF, 30 min; control for the full effect not named in the record | Potency, µM (top dose mostly 76.9 µM), for inactives: top-dose activity change, negative = inhibition, most hits filed as inhibitors; active = falling curve of any shape with a large fitted effect; inconclusive = falling curve, mostly with a smaller effect; inactive = flat or rising curve; cell line not stated here;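 note: intracellular cAMP measured with PDE inhibitor Ro 20-1724 present during compound exposure; potency is the fitted concentration of half-maximal effect; % is set by controls: 0 for no effect and ±100 for the full control effect; nearly all actives have a fitted effect of over 65% in size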
#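 HTRF cAMP measurement after 30 min RT detection following 30 min, 37C compound treatment alongside […] (added as 300 uM solution) in G418-selected cells seeded at 2000/well and grown 16–24 h.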
# Sfp inh = inhibitors of Bacillus subtilis Sfp phosphopantetheinyl transferase | Q9F4F7 | Potency, µM, without a hit: max response, negative = inhibition, most hits filed as inhibitors | actives 3.5% (n = 310,000) | AID 1490 | Biochemical Sfp PPTase activity, qHTS; active = well fitted inhibition curve with a large enough effect; inconclusive = small, poorly fitted or top-dose-only effect, or another doubt; inactive = no such curve, though single readings can be large or run the other way;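 note: the enzyme is Sfp with the accession as filed and its product quenches rhodamine fluorescence; potency is the fitted concentration of half-maximal effect; 0% = enzyme reaction without inhibitor and -100% = no enzyme wells; top concentration of the series not given in the record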
#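 Step 1, compound plus 15 nM Sfp-PPTase, 15 min, room temperature. Step 2, add rhodamine-CoA (5 uM) and BHQ-2-YbbR (12.5 uM). Step 3, read 525/598 nm fluorescence at 0 and 30 min.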
# The depositor's hits bear a star; ? = inconclusive; · = no result given; [ ] = another dose, or the depositor's remark.
SMILES,gsp ag,ClpP mod,CtBP-E1A blk,TRPV1 potentiator,Menin-MLL FL inh,gsp antag,Sfp inh
Cn1c(SCC(=O)NCC2CCCO2)nnc1-c1ccco1 (stereo not given),-5.2%,-1.3%,·,-11.1,·,7.9%,·
Cc1ccc(S(=O)(=O)c2ccc(Oc3cccc(C)c3)cc2)cc1,-30.1%,-1.2%,23.2,-0.5,10.8,-10.7%,-5.6%
CC(C)c1nc(SCC(=O)Nc2ccc3c(c2)OCCO3)n[nH]1,17.2%,-2.6%,-8.4,-5.6,-11.1,4.2%,17.2%
O=C(c1ccc2c3c(cccc13)CC2)C1CCCN(Cc2cccnc2)C1 (stereo not given),-4.5%[15.4 µM],·,-9.2,2.3,3.6,-12.9%,-7.6%
COc1cc(/C=C/C(=O)O)cc(S(=O)(=O)Nc2ccc(F)cc2)c1OC,0.3%,1.1%,3.5,-1.3,3.7,24.2%,-2.0%
CCOC(=O)C1=C(O)/C(=C/c2cn(CC(=O)N3CCCC3)c3ccccc23)SC1=Nc1ccccc1,1.0%,-7.3%,6.2,1.7,?,-14.9%,31.6µM*
COc1ccc(C(=O)OCC(=O)N2C(C)CCCC2C)cc1[N+](=O)[O-] (stereo not given),-9.3%,·,1.1,2.1,-0.3,-5.4%,4.7%
COCc1ccc(CN2CCCC(CO)(Cc3cccc(Cl)c3)C2)o1 (stereo not given),-16.5%,-2.1%,-0.6,-3.3,-0.4,2.6%,8.4%
COc1ccc([C@H]2C[C@@H](O)[C@H](n3cc(-c4ccc(F)cc4)nn3)CN2CC2CCCCC2)cc1,-17.3%,-3.5%,-2.1,·,·,·,·
CCN(CC)S(=O)(=O)c1ccc(/C=C/C(=O)OCC(=O)Nc2ccc(S(N)(=O)=O)cc2)cc1,16.7%[15.4 µM],-0.5%,7.6,1.0,3.9,-14.8%,?
CCN(CC)C(=O)C1=C(C)N(Cc2ccccc2)C(=O)C(CC(=O)NCCN2CCOCC2)C1 (stereo not given),-65.5%[inhibitor],0.5%,0.0,·,·,·,·
O=C1NCCC/C1=N\Nc1ccc(Br)cc1,2.0%[15.4 µM],1.2%,2.0,2.2,1.5,-33.7%,16.4%

# Sfp inh, what is marked active above.
mol | gsp ag | CtBP-E1A blk | Menin-MLL FL inh | Sfp inh
CCOC(=O)C1=C(O)/C(=C/c2cn(CC(=O)N3CCCC3)c3ccccc23)SC1=Nc1ccccc1 | 1.0% | 6.2 | ? | 31.6µM*

# Entries from the list above containing an aryl thioether with sulfur outside any ring, in the order listed:
SMILES,gsp ag,ClpP mod,CtBP-E1A blk,TRPV1 potentiator,Menin-MLL FL inh,gsp antag,Sfp inh
Cn1c(SCC(=O)NCC2CCCO2)nnc1-c1ccco1 (stereo not given),-5.2%,-1.3%,·,-11.1,·,7.9%,·
CC(C)c1nc(SCC(=O)Nc2ccc3c(c2)OCCO3)n[nH]1,17.2%,-2.6%,-8.4,-5.6,-11.1,4.2%,17.2%

# The list goes on:
SMILES,gsp ag,ClpP mod,CtBP-E1A blk,TRPV1 potentiator,Menin-MLL FL inh,gsp antag,Sfp inh
COc1ccc(/C=N/NC(=O)c2ccccc2OC)cc1COc1ccccc1[N+](=O)[O-],-8.6%,-3.1%,-4.6,5.1,-7.6,?,-3.6%
COc1ccc(CCN(CC(=O)NC(C)(C)C)C(=O)Cn2nnc(-c3ccc(C)o3)n2)cc1OC,-5.8%[15.4 µM],·,5.5,-0.9,0.1,-1.3%,14.5%
NNC(=O)c1cc(-c2ccccc2)sc1N,29.0%,-15.7%,·,-1.0,0.6,-2.7%,-10.8%
Cc1cccc(C(C)C)c1NC(=O)COC(=O)c1cc2ccccc2oc1=O,-69.6%[inhibitor],?,-4.6,-4.1,·,1.3%,·
C=CCn1c(SCC(=O)c2ccc(O)c(O)c2)nnc1-c1ccccc1OC,·,2.5%,-0.5,3.2,7.3,?,-22.7%
CN(CCc1ccccn1)C(=O)CCC1CCCN(C(=O)CCOc2ccccc2)C1 (stereo not given),25.5%,-1.3%,·,4.7,-1.8,-4.0%,8.2%
COc1ccc(OC)c(-c2nc3ccccc3nc2-c2ccccc2)c1,-11.9%[15.4 µM],·,22.3,-7.3,4.4,-8.2%,-10.1%
COc1cccc(CNc2ccc(S(=O)(=O)Nc3nccs3)cc2)c1O,-25.8%,-3.2%,-25.0,-0.6,0.4,-3.5%,-3.8%
CN(c1ccccc1)S(=O)(=O)c1cccc(NC(=O)CSc2nncs2)c1,0.0%,-1.3%,-1.8,1.9,-0.9,-22.4%,11.1%
CC(C)CN(CC(C)C)S(=O)(=O)N1CCC(C(=O)NCc2cccnc2)CC1,15.8%,2.1%,·,-19.3,-0.8,1.3%,14.4%
COCCCN(C(=O)Nc1ccc(C)c(C)c1)C(C)c1ccccn1 (stereo not given),?,·,8.7,·,-1.7,-5.9%,6.2%
O=C1CCC(CCC(=O)N2CCCC(C(=O)c3ccc(Cl)cc3)C2)=NN1 (stereo not given),-16.4%,0.9%,5.1,0.5,5.3,-10.7%,-2.3%
Nc1nc(O)c(Sc2ccccc2[N+](=O)[O-])c(=O)[nH]1,-21.6%,·,-1.0,8.0,-14.0,-11.5%,-6.8%
Cc1cnc(C(=O)Nc2cccc3ncccc23)cn1,-33.9%[inhibitor],1.9%,-3.9,-6.7,1.1,-4.2%,-8.3%
Brc1ccc(-c2csc3[n+]2CCCCC3)cc1,-23.6%,·,3.5,16.1,-2.2,7.8%,-9.2%
O=C(c1ccc(N2CCCC2=O)cc1)N1CCN(c2ccc(C(F)(F)F)cc2[N+](=O)[O-])CC1,?,0.9%,5.6,·,·,·,·
COc1cc(-c2noc(C)c2C(=O)NCC[C@@H]2CCCN2C)cc(OC)c1OC,·,-4.0%,4.9,·,·,11.4%,·
COc1cccc(/C=C/C(=O)OCC(=O)Nc2cc(C(F)(F)F)ccc2Cl)c1,-7.6%,35.5µM*,9.1,?,0.5,8.2%,-29.3%
CCOC(=O)c1ccc(Oc2nc(OC)nc(N(C)C)n2)cc1,-35.1%[inhibitor],-0.4%,7.2,4.0,2.8,-11.2%,-8.3%
CC1(C(=O)O)CCC(C(=O)Nc2ccc(F)cc2)C1(C)C (stereo not given),-2.1%[15.4 µM],0.8%,4.8,10.4,-8.0,12.6%,19.3%
O=C(O)COc1ccccc1/C=N/NC(=O)CSc1nc2ccccc2s1,-7.6%,-4.1%,1.0,26.6,1.6,6.7%,?
COc1ccc(C(=O)NCCc2nnc3ccc(SCC(=O)NCCc4ccc(OC)c(OC)c4)nn23)cc1,?,-4.5%,-5.7,-1.9,-6.3,3.1%,18.9%
Cc1ccccc1C1=C/C(=C(\SS/C(C(=O)c2ccc(OCC(=O)O)c(Cl)c2Cl)=C2\C=C(c3ccccc3C)SS2)C(=O)c2ccc(OCC(=O)O)c(Cl)c2Cl)SS1,-18.9%,2.4%,7.2,·,·,8.0%,·
Cn1c(CNC(=O)c2ccccc2)nnc1SCC(=O)Nc1nccs1,12.4%[15.4 µM],·,14.9,4.4,-0.8,·,5.9%
CC(C#N)(CCc1ccccn1)CCc1ccccn1,19.4%,·,2.2,·,·,3.5%,·
COc1ccccc1NC(=O)CSc1nc(SC)ns1,-3.5%[15.4 µM],·,-6.1,9.0,-0.4,-33.9%,-14.2%
CCOc1cccc(/C=N/NC(=O)c2cc(-c3cccn3C)n[nH]2)c1O,1.5%[15.4 µM],·,-84.9*,3.1,-0.4,?,3.0%
Cc1ccccc1CS(=O)(=O)CC1(O)CCN(C(=O)c2cccc(C(F)(F)F)c2)CC1,-12.0%,1.0%,3.4,-8.5,1.9,6.0%,11.7%
CCOc1ccc(CN2C(=O)c3ccccc3C2=O)cc1C(=O)NC1CC(C)(C)NC(C)(C)C1,2.6%,0.9%,3.3,-2.3,·,15.6%,·
O=C(COc1ccccc1)Nc1ccccc1Oc1ccccc1,0.8%,-1.3%,29.4,-12.6,2.7,-6.9%,-4.6%
Cc1ccsc1/C=N/n1c(-c2ccncc2)n[nH]c1=S,-13.6%,2.5%,29.5,0.1,0.4,?,-4.1%
C=CCn1c(SCc2ccccc2)nc2scc(-c3ccc(C)o3)c2c1=O,-17.2%,-4.9%,2.7,-0.6,6.7,-5.3%,28.2µM*
COc1ccc(-n2c(O)c(C=NCc3ccccn3)c3ccccc3c2=O)c(OC)c1,-8.0%[15.4 µM],-19.6%,0.0,16.1,4.7,-0.8%,18.3%
COc1ccccc1N1CCN(C(=O)c2cn(Cc3ccccc3)nc2-c2cccnc2)CC1,18.4%,-0.5%,4.8,-4.7,·,-2.3%,·
CCC(NC(=O)C1CCCO1)c1ccccc1 (stereo not given),15.3%[15.4 µM],1.1%,6.8,-4.4,6.3,6.2%,16.9%
C#Cc1cccc(C(=O)N2CCCC(C(=O)c3ccc(OC)cc3C)C2)c1 (stereo not given),-4.2%[15.4 µM],-17.0%,-5.2,2.4,·,1.6%,3.8%

# Brought forward from above: 3 entries; new compounds follow.
SMILES,gsp ag,ClpP mod,CtBP-E1A blk,TRPV1 potentiator,Menin-MLL FL inh,gsp antag,Sfp inh
COc1ccccc1N1CCN(C(=O)c2cn(Cc3ccccc3)nc2-c2cccnc2)CC1,18.4%,-0.5%,4.8,-4.7,·,-2.3%,·
CCC(NC(=O)C1CCCO1)c1ccccc1 (stereo not given),15.3%[15.4 µM],1.1%,6.8,-4.4,6.3,6.2%,16.9%
C#Cc1cccc(C(=O)N2CCCC(C(=O)c3ccc(OC)cc3C)C2)c1 (stereo not given),-4.2%[15.4 µM],-17.0%,-5.2,2.4,·,1.6%,3.8%
CCC(Cc1ccccc1)NC(=O)c1cc(S(=O)(=O)N2CCCCC2)c[nH]1 (stereo not given),?,-0.5%,-0.5,-10.6,1.6,3.1%,20.7%
CC(Sc1ccc(S(=O)(=O)N(C)C)cn1)C(=O)NC1CCCC1 (stereo not given),?,-2.2%,-22.2,2.8,·,10.3%,·
O=C(CCNS(=O)(=O)c1ccccc1)NCC1CCCCC1,-42.5%[15.4 µM],·,0.0,3.3,·,5.0%,·
CN(CCOc1ccccc1)CC(=O)Nc1ccc(Cl)cc1[N+](=O)[O-],1.9%[15.4 µM],-12.4%,?,16.0,2.7,-3.8%,50.1µM*

# High-throughput results deposited in PubChem BioAssay by National Center for Advancing Translational Sciences (NCATS).
